Coupling enz = counter-screen for Giardia aldolase inhibitors: coupling enzyme system; coupling enzyme system counterscreen, AmpLite Red fluorescence; activity change, negative = inhibition, % at 58.2 µM, hits read low; hit rate 0.67% among 290,000; in the data active means activity change below about -30%
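Fluorescence at 525 nm excitation and 598 nm emission measured inhibition of the coupled detection system without aldolase. Compounds (at 57.5 uM final) were preincubated 10 min at room temperature with coupling enzyme reagent before a 20 min substrate/AmpLite Red step.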
KCNH2 WT inh = inhibitors of human wildtype KCNH2 potassium channel; Q12809; activity change, % at 1.84 µM; U2OS, BacMam KCNH2, thallium flux FluxOr; hits give low values; AID 720551; hit rate 0.37% among 340,000;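 active means maximum activity change below -70%; inconclusive means maximum activity change between -70% and -50%; inactive means maximum activity change above -50%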
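U2OS cells transduced with wild-type KCNH2 virus are loaded with FluxOr dye for 45 min, and thallium flux is measured in kinetic reads before and after stimulation buffer. Rate constants are normalized to DMSO controls.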
B2AR arrestin = agonists driving beta-arrestin recruitment to human beta2-adrenergic receptor. hit rate 0.02% among 330,000. Potency, µM (titrated, usually from 46.1 µM), for the others: at the top dose activation, hits mostly activators. beta-arrestin recruitment to beta2AR, cell-based reporter. P07550;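 further: potency means the concentration at half of the fitted maximal effect; 0% = DMSO controls and full agonism = EC100 isoproterenol or metaproterenol; nearly all actives have a fitted effect of over 65% in size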
Target sequence (P07550 whole entry, looked up): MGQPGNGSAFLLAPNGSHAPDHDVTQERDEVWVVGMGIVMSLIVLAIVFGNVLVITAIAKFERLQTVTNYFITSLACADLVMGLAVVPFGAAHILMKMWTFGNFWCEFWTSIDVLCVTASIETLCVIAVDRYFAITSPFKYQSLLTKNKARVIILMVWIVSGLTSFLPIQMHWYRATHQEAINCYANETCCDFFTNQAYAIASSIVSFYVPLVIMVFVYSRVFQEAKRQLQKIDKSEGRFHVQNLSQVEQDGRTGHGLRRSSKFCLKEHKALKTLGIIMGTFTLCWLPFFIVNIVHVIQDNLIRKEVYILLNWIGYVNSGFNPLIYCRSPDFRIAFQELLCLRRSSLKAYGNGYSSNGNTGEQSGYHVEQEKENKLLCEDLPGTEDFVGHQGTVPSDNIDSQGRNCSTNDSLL
uPA generation = blocks generation of uPA at the cell surface | cell surface uPA generation assay, qHTS | Potency, µM (highest dose often 38.3 µM), for inactives: at the highest dose activity change, negative = inhibition, hits mostly inhibitors | hit rate 0.31% among 330,000 | AID 540303; active means well fitted inhibition curve with a large enough effect; inconclusive means small, poorly fitted or top-dose-only effect; inactive means no such curve, though single readings can be large or run the other way; tested in mouse RAW 264.7 cells; further: potency means the concentration at half of the fitted maximal effect; nearly all actives have a fitted effect of over 55% in size
BCR signal inh = inhibitors of chronic active B-cell receptor signaling | hit rate 0.05% among 340,000 | Potency, µM (doses to about 46.1 µM), inactives show at the top dose ratio change, negative = lower green/red ratio, actives largely listed as inhibitors | AID 493014 | ABC-DLBCL IkBa-CBG/CBR reporter, luminescence ratio, 4 h; active means well fitted inhibition curve with a large enough effect in the signal ratio, with a control signal flat, not every such curve was filed as active; inconclusive means small, poorly fitted or top-dose-only effect, or effect the other way, or a change in a side signal; the % refers to the signal ratio;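 further: potency means the concentration at half of the fitted maximal effect; plate controls were basal doxycycline-induced cells for no effect and cells given 10 µM MG132 for full effect; MG132 reads +100%, hits lower the ratio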
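Doxycycline induced both beetle luciferases in TMD8 lymphoma cells; IKK-driven degradation limits the IkappaBalpha-fused green signal, while red luminescence normalises for cell number and nonspecific effects. Compounds tested up to 46 uM, 4 hrs.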
Eya2 phos inh = inhibitors of human Eya2 phosphatase activity; O00167; hit rate 0.006% among 330,000; Potency, µM (highest dose often 76.9 µM), for the others: top-dose activity, negative = inhibition, usual class: inhibitors; recombinant Eya2, OMFP fluorescence dephosphorylation (OMFP is methylfluorescein phosphate); further: potency means the concentration at half of the fitted maximal effect
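Eya2 protein (added as 0.2 uM solution) was preincubated with compound for 10 min at ambient temperature in 50 mM HEPES pH 7.5, 50 mM NaCl, 5 uM MgCl2, 0.05% BSA, 1 mM DTT. OMFP (added at 50 uM) then reacted 10 min; fluorescence read at 485/525 nm.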
GALK inh = galactokinase (human) inhibition; P51570; AID 1868; Potency, µM (series often up to 57.5 µM), without a hit: at the top dose activity change, negative = inhibition, actives largely listed as inhibitors; Purified GALK, Kinase-Glo residual ATP luminescence; hit rate 0.007% among 270,000; further: potency means the concentration at half of the fitted maximal effect
Target sequence (P51570 whole entry, looked up): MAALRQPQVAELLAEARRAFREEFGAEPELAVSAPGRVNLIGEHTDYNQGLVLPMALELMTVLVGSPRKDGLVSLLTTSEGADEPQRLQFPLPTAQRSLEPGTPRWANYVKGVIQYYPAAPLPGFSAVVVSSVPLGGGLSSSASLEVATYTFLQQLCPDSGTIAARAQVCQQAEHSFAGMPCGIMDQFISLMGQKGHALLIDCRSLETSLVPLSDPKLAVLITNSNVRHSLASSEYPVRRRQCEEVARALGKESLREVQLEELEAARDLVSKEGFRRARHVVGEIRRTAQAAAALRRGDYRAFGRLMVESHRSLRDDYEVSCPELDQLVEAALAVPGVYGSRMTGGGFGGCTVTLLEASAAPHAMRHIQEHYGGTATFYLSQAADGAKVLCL
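GALK at 5 nM final was combined with compound, 35 uM ATP and 100 uM galactose in HEPES pH8.0 with MgCl2 and DTT. The reaction ran one hour at room temperature before luminescent ATP detection.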
Giardia killer = Giardia lamblia killing. Giardia lamblia trophozoite viability. activity change, % at 7.66 µM, hits read low. hit rate 0.15% among 340,000. AID 540267; in the data active means activity change below about -80%; inconclusive means between about -30% and that limit;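 further: parasites exposed to compound for two days anaerobically before the ATP read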
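Giardia lamblia trophozoites (100 cells/well) were incubated with compounds for 48 h at 37 deg C under anaerobic conditions. Viability was read as ATP content by one-step luminescence after 15-30 min at room temperature.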
KCNH2 3.1 inh = KCNH2 3.1 (human) potassium channel inhibition; U2OS KCNH2 3.1, thallium flux FluxOr; hits give low values; activity change, % (tested at about 1.8 µM); hit rate 0.95% among 340,000;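 active means maximum activity change below -70%; inconclusive means maximum activity change from -70% to -50%; inactive means maximum activity change above -50%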;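 further: thallium influx rate constant from kinetic fluorescence after stimulation buffer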
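Thallium flux read-out: FluxOr dye with Red40 quencher in HBSS/HEPES, 45 min at RT. Rate constants from kinetic reads were normalized to positive and negative DMSO controls. Cells: U2OS virally expressing the 3.1 isoform.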
USP2a inh = blocks human ubiquitin-specific protease USP2a; USP2 core, Ub-CHOP2 coupled fluorogenic reporter, 485/531; Potency, µM (highest dose often 38.3 µM), for inactives: at the highest dose activity change, negative = inhibition, hits mostly inhibitors; O75604; hit rate 0.01% among 330,000;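 further: potency means the concentration at half of the fitted maximal effect; plate controls were DMSO wells for no effect and full inhibition by NEM control for full effect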
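USP2 core (10nM final) preincubated 30min RT with compound in 20mM Tris-HCl pH 8.0, 2mM CaCl2, 2mM beta-mercaptoethanol, 0.05% CHAPS; 25nM Ub-CHOP2 plus 25nM reporter substrate added, fluorescence (Ex485/Em531) read after 60min.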
The depositor's hits bear a star; ? = inconclusive; . = not tested or not shown; & = joins results of further samples; [ ] = dose if it differs, or a comment. Unless noted, the call rests on the fitted dose curve; in most records, active means well fitted curve in the direction sought with a large enough effect; inconclusive means small, poorly fitted or top-dose-only effect, or another doubt; inactive means no such curve, though single readings can be large; an effect the other way counts as inactive or inconclusive. Unless noted, on the % scale 0 is the no-effect control and ±100 the full control effect. Not all compounds are listed; the hit share may differ from the screen's.

1	Cc1ccc(C(=O)CC2(O)C(=O)N(C)c3ccccc32)s1 (stereo not given)
2	O=C1CCN(S(=O)(=O)c2ccc(Cl)cc2)CCN1
3	O=C(Nc1ccc(OCC(F)(F)C(F)F)cc1)c1ccncc1
4	CNc1nc(Sc2ccc(C)cc2)cc(C(F)(F)F)n1
5	CC(C)N=C(NS(=O)(=O)c1cccs1)c1ccccc1
6	CCC(C)NCCOCCOc1ccc(Cl)cc1Br (stereo not given)
7	CC(C)C[C@H](NC(=O)NCCc1ccc(Cl)cc1)C(=O)O
8	Cc1cc(NC(=O)CSc2nc(C(C)C)nc3ccccc23)no1

Assay by compound | 1 | 2 | 3 | 4 | 5 | 6 | 7 | 8
Coupling enz | 0 | 4 | 1 | -4 | . | 3 | 6 | 1
KCNH2 WT inh | 4 | 6 | -4 | -3 | -1 | 46 | 1 | 1
B2AR arrestin | 0.3% | -0.6% | 0.3% | 0.4% | -0.7% | -0.5% | -0.4% | -0.3%
uPA generation | 13% | -6% | -2% | . | 12% | 1% | -1% | -14%
BCR signal inh | 4% | -13% | ? | ? | 1% | ? | 2% | ?
Eya2 phos inh | -5% | 0% | 4% | 4% | -4% | -8% | 9% | -14%
GALK inh | 1% | 1% | 0% | -2% | -3% | 6% | 6% | 0%
Giardia killer | 1 | 19 | 8 | -1 | -8 | 10 | 26 | 5
KCNH2 3.1 inh | 16 | 9 | -50 | -8 | -6 | 6 | 4 | -5
USP2a inh | 2% | -6% | 12% | 0% | 0% | 11% | 1% | 0%

9	Cc1cc2c(s1)c1cnn(Cc3ccccc3F)c(=O)c1n2C
10	CCCOc1ccccc1C(=O)Nc1ccc(S(=O)(=O)N2CCN(C)CC2)cc1
11	O=C(CSc1cccs1)Nc1ccc2ccccc2c1
12	CCOc1ccccc1NC(=O)C(OC(=O)c1ccccc1O)c1ccccc1 (stereo not given)
13	Cc1cc(CNC(=O)CCc2nnc(CCCc3ccccc3)o2)nn1C
14	COc1ccc(CCN(C)C(=O)C2CCCN(Cc3ccc(OC)c(OC)c3)C2)cc1OC (stereo not given)
15	COc1ccc(-c2csc(Nc3cc(C)ccn3)n2)cc1OC
16	Cc1cc(SCC#N)nc2ccccc12

Assay by compound | 9 | 10 | 11 | 12 | 13 | 14 | 15 | 16
Coupling enz | 2 | 3 | -3 | -1 | 0 | 3&-4 | -3 | -6
KCNH2 WT inh | -19 | -6 | -4 | -4 | . | -3 | -3 | -1
B2AR arrestin | -0.1% | -0.2% | -0.3% | -0.9% | -0.9% | -0.4%&0.0% | 0.0% | -0.7%
uPA generation | -3% | -19% | -1% | -7% | 8% | 3% | 3% | 1%
BCR signal inh | ? | -7% | ? | -3% | 1% | -22%&-1% | -8% | -1%
Eya2 phos inh | 7% | -14% | -4% | 0% | -6% | 22%&3% | 12% | -2%
GALK inh | 1% | -5% | -2% | 2% | 1% | 0%&1% | -3% | 0%
Giardia killer | -13 | 3 | 1 | 13 | -19 | 0 | -17 | -10
KCNH2 3.1 inh | -12 | -13 | 6 | -2 | 15 | 8 | 3 | -7
USP2a inh | 2% | 0% | 2% | 1% | 3% | -4%&0% | 3% | 3%

A draw from above in order of molar mass, highest first.
10	CCCOc1ccccc1C(=O)Nc1ccc(S(=O)(=O)N2CCN(C)CC2)cc1
12	CCOc1ccccc1NC(=O)C(OC(=O)c1ccccc1O)c1ccccc1 (stereo not given)
13	Cc1cc(CNC(=O)CCc2nnc(CCCc3ccccc3)o2)nn1C
6	CCC(C)NCCOCCOc1ccc(Cl)cc1Br (stereo not given)
8	Cc1cc(NC(=O)CSc2nc(C(C)C)nc3ccccc23)no1
3	O=C(Nc1ccc(OCC(F)(F)C(F)F)cc1)c1ccncc1
15	COc1ccc(-c2csc(Nc3cc(C)ccn3)n2)cc1OC
7	CC(C)C[C@H](NC(=O)NCCc1ccc(Cl)cc1)C(=O)O
5	CC(C)N=C(NS(=O)(=O)c1cccs1)c1ccccc1
11	O=C(CSc1cccs1)Nc1ccc2ccccc2c1

Assay by compound | 10 | 12 | 13 | 6 | 8 | 3 | 15 | 7 | 5 | 11
Coupling enz | 3 | -1 | 0 | 3 | 1 | 1 | -3 | 6 | . | -3
KCNH2 WT inh | -6 | -4 | . | 46 | 1 | -4 | -3 | 1 | -1 | -4
B2AR arrestin | -0.2% | -0.9% | -0.9% | -0.5% | -0.3% | 0.3% | 0.0% | -0.4% | -0.7% | -0.3%
uPA generation | -19% | -7% | 8% | 1% | -14% | -2% | 3% | -1% | 12% | -1%
BCR signal inh | -7% | -3% | 1% | ? | ? | ? | -8% | 2% | 1% | ?
Eya2 phos inh | -14% | 0% | -6% | -8% | -14% | 4% | 12% | 9% | -4% | -4%
GALK inh | -5% | 2% | 1% | 6% | 0% | 0% | -3% | 6% | -3% | -2%
Giardia killer | 3 | 13 | -19 | 10 | 5 | 8 | -17 | 26 | -8 | 1
KCNH2 3.1 inh | -13 | -2 | 15 | 6 | -5 | -50 | 3 | 4 | -6 | 6
USP2a inh | 0% | 1% | 3% | 11% | 0% | 12% | 3% | 1% | 0% | 2%

2	O=C1CCN(S(=O)(=O)c2ccc(Cl)cc2)CCN1
16	Cc1cc(SCC#N)nc2ccccc12

Assay by compound | 2 | 16
Coupling enz | 4 | -6
KCNH2 WT inh | 6 | -1
B2AR arrestin | -0.6% | -0.7%
uPA generation | -6% | 1%
BCR signal inh | -13% | -1%
Eya2 phos inh | 0% | -2%
GALK inh | 1% | 0%
Giardia killer | 19 | -10
KCNH2 3.1 inh | 9 | -7
USP2a inh | -6% | 3%

Additional results follow.
17	O=C(NCc1ccco1)c1cccc(N2CCCC2=O)c1
18	CC1CCN(C(=O)CN(C)S(=O)(=O)c2cccc3nsnc23)CC1
19	O=C(Nc1ccc2c(c1)OCCO2)c1cccc2nc3ccccc3nc12
20	COc1ccc(NC(=O)C(c2cc3c(cc2[N+](=O)[O-])OCO3)N(C)c2ccccc2)cc1 (stereo not given)
21	O=C(OC(C(=O)NCc1ccco1)c1ccc(Cl)cc1)c1cccs1 (stereo not given)
22	CCC(=O)Nc1ccc(C(=O)NNC(=O)COc2cc(C)ccc2C)cc1
23	O=C(CSCc1ccc(F)cc1)Nc1nc2c(s1)CCCC2
24	COc1ccc2[nH]c3c(N4CC(C)OC(C)C4)ncnc3c2c1 (stereo not given)

Assay by compound | 17 | 18 | 19 | 20 | 21 | 22 | 23 | 24
Coupling enz | -2 | 0 | . | -6 | 0 | 9 | 0 | -2
KCNH2 WT inh | -3 | -3 | -2 | 25 | 0 | 1 | -3 | -5
B2AR arrestin | -0.1% | -0.8% | -1.8% | -0.7% | 0.0% | -0.6% | 0.4% | -0.1%
uPA generation | 5% | 2% | -10% | 4% | 12% | 1% | -1% | -4%
BCR signal inh | ? | -20% | 10% | 6% | -1% | 5% | ? | 15%
Eya2 phos inh | -11% | -7% | 0% | 5% | 9% | -9% | -26% | 14%
GALK inh | -1% | 0% | 1% | 1% | -4% | . | 1% | 1%
Giardia killer | 61[activator] | 27 | 2 | -2 | -10 | 0 | -3 | -1
KCNH2 3.1 inh | 12 | 8 | 13 | 8 | -9 | -3 | 1 | -2
USP2a inh | -6% | 0% | -1% | 2% | 11% | -1% | -1% | -1%

Single records, from the list above. Order of screens: Coupling enz | KCNH2 WT inh | B2AR arrestin | uPA generation | BCR signal inh | Eya2 phos inh | GALK inh | Giardia killer | KCNH2 3.1 inh | USP2a inh
`O=C(Nc1ccc2c(c1)OCCO2)c1cccc2nc3ccccc3nc12` reads . | -2 | -1.8% | -10% | 10% | 0% | 1% | 2 | 13 | -1%
`CCC(=O)Nc1ccc(C(=O)NNC(=O)COc2cc(C)ccc2C)cc1` reads 9 | 1 | -0.6% | 1% | 5% | -9% | . | 0 | -3 | -1%
